Screening data deposited in PubChem by National Center for Advancing Translational Sciences (NCATS).
PINK1 modulator = PINK1 expression modulation; PINK1 immunofluorescence, high-content cytometry, 24 h; Potency, µM (series often up to 76.6 µM), for inactives: top-dose activation (PINK1 increase), hits mostly activators; hit rate 0.2% among 410,000; active = well fitted activation curve with a large enough effect; inconclusive = small, poorly fitted or top-dose-only effect; inactive = flat fitted curve, though single readings scatter; cell line not stated here;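 also: potency is read from the fitted curve at half-maximal effect; % of control where 0% means no effect; nearly all actives have a fitted effect of over 65% in size; a mitochondrial uncoupler was the plate control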
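Stable cell line treated 24 h with compounds at 5 concentrations (CCCP controls), then fixed and immunostained for PINK1 plus nuclear and cell stains; PINK1 immunofluorescence quantified by laser-scanning microplate cytometry.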
D2 ag = agonists of human D2 dopamine receptor (beta-arrestin); P14416; DiscoveRx PathHunter D2 beta-arrestin, luminescence, 90 min; 100% = 57 uM dopamine signal; activation, % (no concentration beside the values); hit rate 0.084% among 360,000; in the data active = activation above about 40%; inconclusive = about 15% to 40%; inactive = below about 15%; also: compound concentration not given in the record; the text of the record calls up to 30% inactive
Target sequence (P14416 whole entry, looked up): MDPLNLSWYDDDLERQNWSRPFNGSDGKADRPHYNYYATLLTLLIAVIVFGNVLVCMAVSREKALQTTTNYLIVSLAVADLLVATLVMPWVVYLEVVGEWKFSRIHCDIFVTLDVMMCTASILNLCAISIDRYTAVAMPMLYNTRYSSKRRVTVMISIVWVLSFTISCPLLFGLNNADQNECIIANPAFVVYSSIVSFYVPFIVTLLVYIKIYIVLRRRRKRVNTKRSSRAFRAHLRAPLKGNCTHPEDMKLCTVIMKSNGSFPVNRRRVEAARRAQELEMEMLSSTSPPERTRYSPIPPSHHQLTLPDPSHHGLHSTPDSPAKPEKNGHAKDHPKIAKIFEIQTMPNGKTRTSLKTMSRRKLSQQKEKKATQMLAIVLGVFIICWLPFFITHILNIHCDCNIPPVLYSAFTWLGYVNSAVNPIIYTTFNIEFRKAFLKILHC
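Agonist mode: compounds alone added to overnight-plated D2 PathHunter cells for 90 min at 37 C, with 57 uM final dopamine (EC100) defining full response. Beta-arrestin recruitment detected by chemiluminescent reagent, read after 1 h at ambient temperature.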
D2 potentiator = human D2 receptor positive allosteric modulation. P14416. DiscoveRx D2 beta-arrestin cells, luminescence, 90 min; 100% = 57 uM dopamine signal. potentiation, % (test concentration not listed). hit rate 0.23% among 360,000. AID 624464; active = potentiation of 50% or more; inconclusive = 30% to 50%; inactive = 30% or less;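 also: compound concentration not given in the record; tested on top of an EC20 dose of dopamine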
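PathHunter beta-arrestin assay in DiscoveRx D2 cells. Compounds were added with an EC20 of dopamine (50 nM final) for 90 min at 37 deg C. Luminescence was read 1 h after detection reagent, with 57 uM dopamine as the EC100 control.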
TRPML1 ag = agonists of human TRPML1 channel; activation, % (no concentration beside the values); Q9GZU1; hit rate 0.12% among 410,000; TRPML1-expressing cells, Ca2+ dye fluorescence, FDSS; host cell line not named in the record; reference of the full effect not given here; in the data active = activation above about 50%; inconclusive = about 30% to 50%; inactive = below about 30%; also: 0% is about no effect; the text of the record puts the active cut at 80%
Target sequence (Q9GZU1 whole entry, looked up): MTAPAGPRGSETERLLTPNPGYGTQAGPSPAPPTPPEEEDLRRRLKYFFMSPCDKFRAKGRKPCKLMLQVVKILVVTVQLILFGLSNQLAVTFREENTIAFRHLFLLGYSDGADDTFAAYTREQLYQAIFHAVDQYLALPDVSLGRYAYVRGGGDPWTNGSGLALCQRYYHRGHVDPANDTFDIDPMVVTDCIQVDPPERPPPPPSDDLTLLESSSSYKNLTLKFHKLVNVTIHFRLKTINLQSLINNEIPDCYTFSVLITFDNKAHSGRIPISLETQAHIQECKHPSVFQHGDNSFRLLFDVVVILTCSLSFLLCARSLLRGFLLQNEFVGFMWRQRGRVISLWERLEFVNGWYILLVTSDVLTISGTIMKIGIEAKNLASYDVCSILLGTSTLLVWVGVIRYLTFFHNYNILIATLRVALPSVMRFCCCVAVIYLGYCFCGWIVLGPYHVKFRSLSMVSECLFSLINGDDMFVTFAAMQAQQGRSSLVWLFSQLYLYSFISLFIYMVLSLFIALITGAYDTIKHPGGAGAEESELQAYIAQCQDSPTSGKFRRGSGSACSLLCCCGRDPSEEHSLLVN
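In this qHTS format, compounds were pin-transferred onto Ca8-dye-loaded TRPML1-DL cells induced with Tet overnight, and intracellular Ca2+ fluorescence was recorded kinetically for 110 s after a 10 s baseline. A subsequent 4uM final 54-4 (EC80) addition followed by a second 110 s read served as the antagonist phase.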
Six1-Eya2 inh = Six1/Eya2 interaction inhibition; Q15475+O00167; AlphaScreen GST-Six1/His-Eya2 binding, biochemical; hits give low values; control for the full effect not named in the record; activity change, % (test concentration not listed); hit rate 0.56% among 360,000; in the data active = activity change below about -65%; inconclusive = about -30% to -65%; inactive = above about -30%; also: % is scaled to controls: 0 for no effect and ±100 for the full control effect; compound concentration not given in the record
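Homogeneous AlphaScreen proximity assay pairing GST-Six1 with His-tagged Eya2 (added as 5X mix: 250 nM and 500 nM) in 50 mM Tris pH 8.0, 300 mM NaCl, 1 mM TCEP. Glutathione donor and nickel acceptor beads; 1 h, 37 °C, dark.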
CtBP-E1A blk = CtBP/E1A binding inhibition | AlphaScreen GST-E1A/His-CtBP binding, 1536-well; hits give low values; control for the full effect not named in the record | activity change, % (test concentration not listed) | hit rate 0.49% among 340,000 | AID 651724; in the data active means activity change below about -65%; inconclusive means about -30% to -65%; inactive means above about -30%; also: % is scaled to controls: 0 for no effect and ±100 for the full control effect; compound concentration not given in the record
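Homogeneous bead-based format: GST-tagged E1A captured on glutathione donor beads, His-tagged CtBP on nickel acceptor beads; compounds precede bead addition by 2 h at 37 °C.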
Active calls of the source: *; ? = inconclusive; . = not tested or not shown; [ ] = remark or other dose.

SMILES	PINK1 modulator	D2 ag	D2 potentiator	TRPML1 ag	Six1-Eya2 inh	CtBP-E1A blk
O=C(Nc1cccc(S(=O)(=O)N2CCCCCC2)c1)C1CCN(C(=O)c2ccc(Cl)cc2)CC1	-1.7%	-1.3	-32	1.9	-13	-13
O=C(CNC(=O)N1CC(=O)Nc2ccccc21)NCCc1cccc(F)c1	-1.4%	-7.2	-11	1.1	-4	-12
Cc1ccc2nc(NCCO)nc(-c3ccccc3)c2c1	0.7%	-2.3	-29	-0.6	6	5
CC(Sc1nnnn1-c1ccc(O)cc1)c1nc2ccccc2c(=O)[nH]1 (configuration not stated)	2.9%	2.5	1	1.6	5	-2
Cc1ccc(S(=O)(=O)/C=C/c2ccccc2)cc1	3.4%	-3.2	-8	4.0	13	8
O=C(NC(Cc1ccccc1)c1nc2ccccc2[nH]1)c1ccc(Cl)c([N+](=O)[O-])c1 (configuration not stated)	-1.8%	-0.3	-1	3.3	-12	1
COc1ccc(/C=C2/N=C3CCCCCN3C2=O)cc1OC	2.1%	-1.8	-4	0.0	5	11
CC(=O)Nc1ccc(NC(=O)CSc2nc(N)c(NC(=O)c3ccco3)c(=O)[nH]2)cc1	6.4%	-2.1	-14	0.8	-1	-2
O=S(=O)(NC1CCCc2ccccc21)c1cnc[nH]1 (configuration not stated)	-1.3%	-2.1	1	1.2	7	7
CC(C)(C)c1ccc(C(=O)Nc2nnc(SCC(=O)NCC3CCCO3)s2)cc1 (configuration not stated)	3.2%	-0.3	0	-0.2	0	4
O=C(Nc1ccccc1)Nc1ccc(Cl)nc1Cl	-0.3%	-22	-3	2.5	-3	4
CCc1c(C(=O)NC2CCCC2)csc1C	0.1%[38.3 µM]	-4.5	-8	-0.2	2	-1
O=c1cc(-c2nn[nH]n2)[nH]c(=O)[nH]1	0.2%	-2.2	-11	0.0	?	-20
Cc1csc(CN(C)C(=O)C2CCC(=O)N(CCCc3ccccc3)C2)n1 (configuration not stated)	1.5%	-0.8	-5	-0.1	2	4
COc1ccc(N(C(=O)CNC(=O)c2ccco2)C(C(=O)NCC2CCCO2)c2ccc(OC)c(OC)c2)cc1 (configuration not stated)	1.0%	-5.9	-7	-0.7	-19	-3
c1ccc(N2CCN(C3CC4CCC3C4)CC2)cc1 (configuration not stated)	4.3%	-1.7	-5	0.3	-3	1
Cc1ccc(N(C(C)C(=O)N2CCC(C)CC2)S(C)(=O)=O)cc1C (configuration not stated)	.	-7.3	-22	0.3	4	9
Cn1c(N)c(C(=O)COC(=O)C2(c3cccc(F)c3)CCCC2)c(=O)n(C)c1=O	-1.3%	1.0	22	-0.1	-16	-11
O=C(N/N=C\CCc1ccccc1)c1ccco1	-0.3%	-1.6	-18	2.6	6	10
O=C(N/N=C/c1cccc(O)c1)c1cc(-c2ccc3c(c2)OCO3)n[nH]1	8.6%	1.6	2	1.0	-9	.
N#Cc1c2ccccc2nc2ccccc12	0.5%	-9.4	-5	0.9	-2	.
CCCCCCCCN1C(=O)[C@H](CC(=O)N2CCN(C(=O)c3ccco3)CC2)C[C@@]2(C(=O)OCC)CCCC=C12	0.4%	.	.	-0.9	-16	3
Cc1cccc(N2CC(C(=O)Nc3nnc(SCCC4OCCO4)s3)CC2=O)c1 (configuration not stated)	-0.9%	-1.8	0	-0.2	-14	-1
COc1ccccc1N1CCN(C(=S)Nc2ccc3nc(N4CCOCC4)cc(C)c3c2)CC1	-0.2%	-1.1	-6	-0.7	-12	-6
Clc1ccc(-c2nnc(CSc3nnc(-c4cccs4)n3Cc3ccccc3)o2)cc1	0.6%	10	0	1.9	-2	.
Cc1cccc2cc(CN(Cc3ccccc3)C(=O)c3cccc(F)c3)c(Cl)nc12	4.7%[38.3 µM]	-1.8	-5	-0.1	-2	10
CCOC(=O)NCN1C(=O)C2C3C=CC(C3)C2C1=O (configuration not stated)	-1.9%	-1.8	-16	1.2	0	0
c1ccc(-c2ccc(SCc3cccnc3)nn2)nc1	-0.9%	-4.8	-5	-0.2	-91*	-89*
COc1cc(/C=N/NC(=O)c2ccc3nc[nH]c3c2)cc(OC)c1OC	3.5%	1.5	-4	0.1	-7	-6
COc1cc(C(=O)Nc2ccccc2N2CCOCC2)ccc1OCC(=O)N1CCOCC1	1.1%	-2.8	-10	0.8	9	-1
CC(CCc1ccccc1)NC(=O)CC(C)c1ccccc1 (configuration not stated)	0.8%	-3.3	-14	-0.4	-1	.
Cc1cc(OCC(=O)N(C)C2CCCCC2)ccc1Cl	-0.6%	-3.4	-7	0.2	11	2
N#C/C(=C\c1ccc(F)c(F)c1)C(=O)NC1CCCCC1	6.8%	-2.8	6	0.4	11	-8
Cc1cc(C(=O)CCC(=O)Nc2cccc(F)c2)c(C)s1	1.1%	-0.9	-16	0.6	9	1
CNc1cc(-c2ccc(OC)nc2)ncn1	0.1%	-5.3	0	-0.3	5	6
CCOc1ccc(NC(=S)NCCCN2CCOCC2)cc1	0.6%	0.8	-12	-0.4	11	.
C/C(=N\Nc1ncc(Cl)cc1Cl)c1ccc(N2CCOCC2)cc1	1.2%	7.8	-9	0.2	-8	0
Cc1nc(N2CCOCC2)c2oc3ccccc3c2n1	3.7%	-4.4	-15	0.0	3	8
CCCCC/C(=N\NC(=O)Nc1ccccc1)c1ccccc1	0.2%	2.7	-17	0.5	5	-10
CCc1ccc(C(=O)NNC(=O)c2ccc(OCC(=O)N3CCOCC3)c(OC)c2)cc1	-1.2%	2.4	-3	0.4	6	5
COc1ccc2oc(C(=O)OCC(=O)N(C)CC(=O)Nc3ccc(F)cc3)c(C)c2c1	-1.8%	-3.1	-68	1.1	-8	4
Cc1ccc(CN2CCC(N3CC(C)OC(C)C3)CC2)cc1 (configuration not stated)	-1.1%	-2.4	-5	1.2	3	5
Cn1c(=O)c2cc(S(=O)(=O)NCCC(=O)NCCc3ccc(Cl)cc3)ccc2n(C)c1=O	4.2%[38.3 µM]	-4.5	-13	0.3	-12	-15
COc1ccccc1CNC(=O)COC(=O)Cc1ccc(Cl)cc1	-1.8%	-1.1	-2	3.6	7	12
O=C(NC(=S)Nc1cccnc1)c1cccc(Cl)c1	0.6%	-6.2	-18	-0.6	-7	2
Cc1cc(C)n(CCc2nc(-c3ccc(C(C)(C)C)cc3)cs2)n1	18%	-4.6	11	2.4	7	-11
CSC(=NC#N)N1CCN(c2c(C)cccc2C)CC1	-0.3%	-3.4	-4	2.3	0	-9
N#Cc1ccc(CSc2ncnc3c2cnn3Cc2ccccc2)cc1	12%	1.6	-3	4.7	9	8
Cc1cnc(CNC(=O)c2ccc3nc([C@@H]4O[C@H](CO)[C@H](O)[C@H](O)[C@H]4O)[nH]c3c2)cn1	1.9%	1.6	-1	0.0	8	9
O=C1CC(Nc2ccc(N3CCOCC3)cc2)C(=O)N1C1CCCCC1 (configuration not stated)	1.6%	2.0	-6	-0.4	-4	-1
Remaining list, next part.
SMILES	PINK1 modulator	D2 ag	D2 potentiator	TRPML1 ag	Six1-Eya2 inh	CtBP-E1A blk
CC(=O)c1cccc(NC(=O)CC2S/C(=N/N=C3CCCCCC3)NC2=O)c1 (configuration not stated)	-1.4%	-1.1	-7	0.3	-4	-5
CCCCn1c(N)c(N(CC)C(=O)c2cccc(C)c2)c(=O)[nH]c1=O	2.5%	-3.2	-7	0.5	8	-9
COc1cc(/C=C/C(=O)C2C(=O)C=C(C)OC2=O)cc(OC)c1O (configuration not stated)	0.2%	6.2	?	4.6	-16	-12
Cc1nc([N+](=O)[O-])cn1Cc1cccc([N+](=O)[O-])c1	-2.0%	2.2	-5	0.1	91	2
Cc1cccc(NC(=O)c2sc(Cl)nc2-c2ccccc2)c1	1.1%	-1.5	-4	0.5	27	9
Cc1cc(NC(=O)CCS(=O)(=O)c2nc(-c3ccccc3)cc(C(F)(F)F)n2)no1	0.7%	-7.2	-19	0.1	-2	11
CCOC(=O)c1c(C)n(-c2ccc(C)cc2)c2c(CC(C)=O)c(Br)c(OC)c(O)c12	7.3%	-1.2	-4	0.0	17	6
COC(=O)C1=C(O)CSC1=Nc1cccc(C(F)(F)F)c1	2.6%	-1.4	0	0.7	0	-12
CCC1=C(OC(=O)N(CC)CC)N2C(=O)OC(=NCCc3c[nH]c4ccccc34)[C@]2(Cc2ccccc2)[C@H]2C1=CC[C@H]1C(=O)N(CC(=O)OC)C(=O)[C@H]12	-0.3%	-0.6	2	-0.9	-26	-16
O=C(c1ccc([N+](=O)[O-])cc1)N1CCSC1c1cccc(Cl)c1 (configuration not stated)	-0.8%	4.2	1	4.1	-29	.
CSc1nc(Cl)cc(N(CCO)CCO)n1	1.1%	-2.4	-15	-0.8	-1	10
O=C(c1c(F)cccc1F)N1CCC(O)(c2ccc(F)cc2)CC1	-0.5%	0.0	1	.	-1	.
COC(=O)c1ccccc1NC(=O)CSc1nnc(-c2cccc(NC(C)=O)c2)n1C	1.3%	-2.9	3	0.9	0	0
CCn1c(CSCc2ccc(Cl)cc2)n[nH]c1=S	-1.8%	?	-5	1.1	-3	-24
Cn1c(=O)cc(OCCCC(=O)NCCCN2CCN(Cc3ccccc3)CC2)c2ccccc21	0.7%[38.3 µM]	-2.1	-19	0.6	-1	5
O=C(Nc1ccc2oc(-c3cccnc3)nc2c1)c1cc2ccccc2o1	2.5%	1.1	10	0.5	4	3

In a second layout: entries from further up
Fields – PINK1 modulator | D2 ag | D2 potentiator | TRPML1 ag | Six1-Eya2 inh | CtBP-E1A blk
> CCCCn1c(N)c(N(CC)C(=O)c2cccc(C)c2)c(=O)[nH]c1=O
→ 2.5% | -3.2 | -7 | 0.5 | 8 | -9
> COc1cc(/C=C/C(=O)C2C(=O)C=C(C)OC2=O)cc(OC)c1O (configuration not stated)
→ 0.2% | 6.2 | ? | 4.6 | -16 | -12
> Cc1nc([N+](=O)[O-])cn1Cc1cccc([N+](=O)[O-])c1
→ -2.0% | 2.2 | -5 | 0.1 | 91 | 2
> Cc1cccc(NC(=O)c2sc(Cl)nc2-c2ccccc2)c1
→ 1.1% | -1.5 | -4 | 0.5 | 27 | 9
> Cc1cc(NC(=O)CCS(=O)(=O)c2nc(-c3ccccc3)cc(C(F)(F)F)n2)no1
→ 0.7% | -7.2 | -19 | 0.1 | -2 | 11
> CCOC(=O)c1c(C)n(-c2ccc(C)cc2)c2c(CC(C)=O)c(Br)c(OC)c(O)c12
→ 7.3% | -1.2 | -4 | 0.0 | 17 | 6
> COC(=O)C1=C(O)CSC1=Nc1cccc(C(F)(F)F)c1
→ 2.6% | -1.4 | 0 | 0.7 | 0 | -12
> CCC1=C(OC(=O)N(CC)CC)N2C(=O)OC(=NCCc3c[nH]c4ccccc34)[C@]2(Cc2ccccc2)[C@H]2C1=CC[C@H]1C(=O)N(CC(=O)OC)C(=O)[C@H]12
→ -0.3% | -0.6 | 2 | -0.9 | -26 | -16
> O=C(c1ccc([N+](=O)[O-])cc1)N1CCSC1c1cccc(Cl)c1 (configuration not stated)
→ -0.8% | 4.2 | 1 | 4.1 | -29 | .
> CSc1nc(Cl)cc(N(CCO)CCO)n1
→ 1.1% | -2.4 | -15 | -0.8 | -1 | 10
> O=C(c1c(F)cccc1F)N1CCC(O)(c2ccc(F)cc2)CC1
→ -0.5% | 0.0 | 1 | . | -1 | .
> COC(=O)c1ccccc1NC(=O)CSc1nnc(-c2cccc(NC(C)=O)c2)n1C
→ 1.3% | -2.9 | 3 | 0.9 | 0 | 0
